BLM helicase inh: blocks DNA unwinding by human BLM helicase; P54132; recombinant BLM DNA unwinding, fluorescence dequenching; Potency, µM (titrated, usually from 56.1 µM), inactives show top-dose activity change, negative = inhibition, actives largely listed as inhibitors; actives 0.2% (n = 350,000);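 also: plate controls were vehicle for no effect and no enzyme for full effect; nearly all actives have a fitted effect of over 35% in size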
Pin1 inh: blocks the human prolyl isomerase Pin1. AID 504891. Potency, µM (highest dose often 115 µM), for the others: at the top dose activity, negative = inhibition, usual class: inhibitors. Q13526. Pin1 FP peptide displacement, HiFluor488, 10 min. actives 0.009% (n = 390,000); active = well fitted inhibition curve with a large enough effect in the polarisation, with a control signal flat, not every such curve was filed as active; inconclusive = small, poorly fitted or top-dose-only effect, or effect the other way, or a change in a side signal; inactive = no such curve, though single readings can be large or run the other way; the % refers to the polarisation; also: % is scaled to controls: 0 for no effect and ±100 for the full control effect
Target sequence (Q13526 whole entry, looked up): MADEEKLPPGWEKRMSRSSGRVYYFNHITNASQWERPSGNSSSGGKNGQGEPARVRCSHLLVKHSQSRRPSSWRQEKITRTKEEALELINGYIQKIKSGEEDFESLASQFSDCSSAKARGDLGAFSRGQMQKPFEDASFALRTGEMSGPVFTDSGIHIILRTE
G9a block: blocks human histone lysine methyltransferase G9a. Q96KQ7. G9a H3K9 monomethylation, AlphaScreen, 2 h. Potency, µM (highest dose often 102 µM), without a hit: top-dose activity, negative = inhibition, actives largely listed as inhibitors. actives 8.8% (n = 350,000). AID 504332; also: % is scaled to controls: 0 for no effect and ±100 for the full control effect; nearly all actives have a fitted effect of over 75% in size
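Step 1: enzyme (final 20 nM) with compound, 15 min RT. Step 2: substrate peptide 500 nM and SAM 20 uM, 2 h RT. Step 3: anti-H3K9me1 antibody and AlphaScreen beads, 10 min, then plate read.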
Pol iota inh: blocks human DNA polymerase iota activity; Potency, µM (top dose mostly 115 µM), without a hit: top-dose activity, negative = inhibition, most hits filed as inhibitors; actives 1% (n = 390,000); Pol iota fluorescent replication assay, 10 min
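Fluorescent replication assay read twice, at 0 min and 10 min after adding 50 nM (final) substrate. Enzyme (10 nM) and compounds were first incubated 15 min at room temperature; enzyme-free buffer wells were negative controls.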
GLS inh: blocks human kidney-isoform glutaminase activity | O94925 | GLS enzymatic activity, qHTS titration | Potency, µM (doses to about 45.5 µM), without a hit: top-dose activity change, negative = inhibition, usual class: inhibitors | actives 0.21% (n = 410,000); also: % is scaled to controls: 0 for no effect and ±100 for the full control effect
Target sequence (O94925 whole entry, looked up, canonical isoform): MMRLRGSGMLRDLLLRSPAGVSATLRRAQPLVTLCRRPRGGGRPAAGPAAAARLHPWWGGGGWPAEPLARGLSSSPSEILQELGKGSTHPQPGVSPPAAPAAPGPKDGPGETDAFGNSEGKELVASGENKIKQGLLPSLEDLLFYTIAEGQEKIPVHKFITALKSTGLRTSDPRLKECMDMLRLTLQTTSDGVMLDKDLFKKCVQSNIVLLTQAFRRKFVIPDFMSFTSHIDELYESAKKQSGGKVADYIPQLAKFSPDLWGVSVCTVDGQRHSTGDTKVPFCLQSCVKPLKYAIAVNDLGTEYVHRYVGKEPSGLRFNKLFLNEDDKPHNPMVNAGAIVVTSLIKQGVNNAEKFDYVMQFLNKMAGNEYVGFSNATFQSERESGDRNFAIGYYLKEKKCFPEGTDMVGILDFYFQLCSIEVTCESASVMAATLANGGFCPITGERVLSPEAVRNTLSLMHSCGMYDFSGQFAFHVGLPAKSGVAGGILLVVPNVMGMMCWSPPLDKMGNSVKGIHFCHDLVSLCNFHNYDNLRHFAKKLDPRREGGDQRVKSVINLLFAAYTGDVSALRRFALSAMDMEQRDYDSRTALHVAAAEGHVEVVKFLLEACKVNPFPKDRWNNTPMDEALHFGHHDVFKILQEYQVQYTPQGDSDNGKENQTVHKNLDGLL
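Glutamate formation by hKGA was monitored fluorometrically using coupled glutamate oxidase, HRP and Amplex Red. Substrate was added as 1 mM L-glutamine solution; incubation was 30 min at RT after an initial read.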
Tb PGK inh: inhibitors of T. brucei phosphoglycerate kinase; P07378; PGK/GAPDH coupled, Kinase-Glo luminescence, 60 min; Potency, µM (series often up to 57.5 µM), without a hit: at the top dose activity change, negative = inhibition, actives largely listed as inhibitors; actives 0.043% (n = 380,000); AID 602233; also: % is scaled to controls: 0 for no effect and ±100 for the full control effect; nearly all actives have a fitted effect of over 60% in size
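Luminescent ATP detection (Kinase-Glo Plus) follows a 60-minute room-temperature incubation, with wells lacking PGK as controls. Buffer: 100 mM TEA (pH 7.6), 5 mM MgCl2, 0.01% Tween-20. Coupling enzyme GAPDH (100 nM final) supplies unstable 1,3-BPG in-well.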
Numbers without * were called inactive; i = inactive; ? = inconclusive; . = not tested or not shown; [ ] = dose if it differs, or a comment. Unless noted, calls follow the shape of the dose curve; as a rule, active = well fitted curve in the direction sought with a large enough effect; inconclusive = small, poorly fitted or top-dose-only effect, or another doubt; inactive = no such curve, though single readings can be large; an effect the other way counts as inactive or inconclusive. Potency is read from the fitted curve at half-maximal effect. Only part of the results is shown; count on the stated rates, not on these rows.

Assay codes: A = BLM helicase inh; B = Pin1 inh; C = G9a block; D = Pol iota inh; E = GLS inh; F = Tb PGK inh
SMILES: COc1ccc(CNC(=S)N2CCN(Cc3ccccc3)CC2)cc1
  A: -2%	B: -1%	C: -49%[12.7 µM]	D: ?	E: 5%	F: -5%

SMILES: O=C(Nc1cccc(S(=O)(=O)Nc2ccc(Cl)cc2)c1)c1ccccn1
  A: .	B: ?	C: ?	D: ?	E: -2%	F: -5%

SMILES: CCCCN(CC)c1nc(-c2ccncc2)nc2ccccc12
  A: 0%	B: -2%	C: 3.5µM*	D: ?	E: 7%	F: -7%

SMILES: COc1ccc(CNCc2cccc(OC)c2OC)cc1Br
  A: 0%	B: -10%	C: 10µM*	D: 110%[activator]	E: 0%	F: -1%

SMILES: COc1ccc(Br)cc1CN(C)CC(=O)NCc1ccc(F)cc1
  A: -1%	B: 2%	C: ?	D: 61%[activator]	E: 1%	F: i

SMILES: COc1ccc(/C=N/NC(=O)c2ccncc2)cc1CN1CCCc2ccccc21
  A: -12%	B: 0%	C: 35µM*	D: 65%[activator]	E: -15%	F: i

SMILES: CCOC(=O)c1ccc(NC(=O)c2ccnn2C)cc1
  A: .	B: -3%	C: .	D: 11%[58.9 µM]	E: -2%	F: 0%

SMILES: O=c1cc(O)c2sc(Nc3ccc(F)cc3)nc2[nH]1
  A: -3%	B: 31%[activator]	C: -15%[59 µM]	D: -24%	E: 28%	F: i

SMILES: O=C(c1ccco1)N1CCN(Cc2cccc([N+](=O)[O-])c2)CC1
  A: 3%	B: 3%	C: 3.2µM*	D: -1%	E: 14%	F: 3%

SMILES: CN(C)CCN(C(=O)c1ccc(C(=O)c2ccccc2)cc1)c1nc2cc3c(cc2s1)OCCO3
  A: 3%	B: 3%	C: .	D: -11%	E: 20%	F: -4%

SMILES: COc1ccc(C(=O)NC(=S)NC2CCCCC2)cc1
  A: -10%	B: -4%	C: 40µM*	D: 31%[activator]	E: 0%	F: -2%

SMILES: O=C(c1cccs1)N1CCC(N2CCN(c3ccccc3)CC2)CC1
  A: 2%	B: -9%	C: 14µM*	D: 2%	E: 31%[activator]	F: -2%

SMILES: CCn1nc(C(=O)NNS(=O)(=O)c2cc(/C=C/C(=O)O)cc(OC)c2OC)c2ccccc2c1=O
  A: .	B: 0%	C: .	D: 58%[activator]	E: ?	F: 6%

SMILES: CCCc1cc(C(=O)Nc2ccc(OC)cc2[N+](=O)[O-])cs1
  A: -6%	B: 5%	C: 14µM*	D: -7%	E: -5%	F: -10%

SMILES: CC(/C=N/n1c(-c2ccccn2)n[nH]c1=S)=C\c1ccccc1
  A: 2%	B: 0%	C: 1.6µM*	D: ?	E: -8%	F: -2%

SMILES: CC(=O)C(Sc1ccc2nnc(-c3ccncc3)n2n1)C(C)=O
  A: 3%	B: 1%	C: 25µM*	D: -7%	E: -6%	F: 0%

SMILES: Nc1cnccc1C(=O)O
  A: -13%	B: ?	C: ?	D: ?	E: -31%	F: -14%

SMILES: COc1ccccc1OCC(=O)Nc1nnc2n1CCS2
  A: -4%	B: -11%	C: ?	D: 7%	E: 1%	F: -9%

SMILES: CCN1CCCC1CNCC(=O)Nc1ccc(OC(F)(F)F)cc1 (stereo unspecified)
  A: 0%	B: -8%	C: -23%[12.7 µM]	D: 29%	E: 16%	F: 12%

SMILES: Cn1c(SCC(=O)Nc2ccc3c(c2)OCCO3)nnc1-c1ccccn1
  A: 1%	B: -5%	C: 11%[12.7 µM]	D: 5%	E: -1%	F: i

SMILES: CCCS(=O)(=O)N1CCN(Cc2ccc([N+](=O)[O-])cc2)CC1
  A: 3%	B: 1%	C: 2.2µM*	D: 11%	E: 2%	F: i

SMILES: C=CCc1ccc(OCCCCN2CC(C)CC(C)C2)c(OC)c1 (stereo unspecified)
  A: 2%	B: -6%	C: 8.9µM*	D: -14%	E: 5%	F: -2%

SMILES: CCOc1ncccc1C(=O)OCC(=O)Nc1nnc(-c2ccccc2)o1
  A: .	B: 7%	C: ?	D: ?	E: -5%	F: -9%

SMILES: COc1ccccc1COCC(O)CN1CCCCC1CO (stereo unspecified)
  A: -5%	B: -9%	C: ?	D: 12%	E: 6%	F: -1%

SMILES: CN(C)CCN(C(=O)c1cccc2ccccc12)c1nc2cc3c(cc2s1)OCO3
  A: -13%	B: -1%	C: .	D: -21%	E: 8%	F: -3%

SMILES: CN(C)CCN(C(=O)c1ccc(C(=O)c2ccccc2)cc1)c1nc2cc3c(cc2s1)OCO3
  A: -12%	B: 14%	C: .	D: 12%	E: 14%	F: -3%

SMILES: N#Cc1ccsc1NC(=O)c1cnccn1
  A: -2%	B: 6%	C: 3.5µM*	D: -12%	E: 1%	F: -6%

SMILES: Cc1ccc(/C=N/c2sc3c(c2C#N)CCC3)s1
  A: -6%	B: -13%	C: ?	D: 5%	E: -4%	F: -2%

SMILES: CCOC(=O)N1CCN(CC(=O)Nc2cc(OCC)ccc2OCC)CC1
  A: -10%	B: -8%	C: 11µM*	D: 17%	E: 0%	F: -1%

SMILES: CN(C)c1nc(NN)nc(Nc2ccc(F)cc2)n1
  A: -3%	B: 2%	C: 5%	D: 142%[activator]	E: ?	F: 7%

SMILES: Cc1ccc2c(c1)-c1c(ssc1=S)C(C)(C)N2C(=O)CSc1nncn1C
  A: -2%	B: -1%	C: ?	D: -13%	E: 14%	F: -7%

SMILES: CC(C)NCCOCCSc1ccc(Cl)cc1
  A: 2%	B: -14%	C: 8.9µM*	D: ?	E: 6%	F: 0%

SMILES: O=[N+]([O-])c1ccccc1C=NNc1ccccc1
  A: .	B: -19%	C: .	D: 8%	E: 3%	F: i

SMILES: COc1ccc2c(c1)C(C)=CC(C)(C)N2C(=O)CNCc1ccc2c(c1)OCO2
  A: 1%	B: -10%	C: 28µM*	D: ?	E: 43%[activator]	F: -5%

SMILES: Cc1cc(C)cc(-n2ccnc2SCC(=O)Nc2ccc3c(c2)OCCO3)c1
  A: -5%	B: ?	C: -2%[12.7 µM]	D: -1%	E: 8%	F: -5%

SMILES: CCN1CCN(C(=S)NC(C)c2ccccc2)CC1 (stereo unspecified)
  A: 2%	B: -3%	C: ?	D: 14%	E: 1%	F: -7%

SMILES: O=[N+]([O-])c1ccccc1CN1CCN(Cc2ccc3ccccc3c2)CC1
  A: 0%	B: -1%	C: 6.3µM*	D: 39%[activator]	E: 7%	F: -3%

SMILES: O=[N+]([O-])c1cc(C(F)(F)F)ccc1Sc1ccc2ccccc2n1
  A: -9%	B: 2%	C: 40µM*	D: -13%	E: 2%	F: .

SMILES: C/C(CC(C)C)=N\Oc1nc(C)cc(C)n1
  A: 2%	B: -9%	C: .	D: 14%	E: 17%	F: 6%

SMILES: Cc1cccc(/C=N/n2c(-c3ccco3)n[nH]c2=S)c1
  A: -3%	B: -1%	C: .	D: -12%	E: 4%	F: -5%

3 entries from above, with two lines to a compound.
Results follow in this order: BLM helicase inh	Pin1 inh	G9a block	Pol iota inh	GLS inh	Tb PGK inh
O=[N+]([O-])c1cc(C(F)(F)F)ccc1Sc1ccc2ccccc2n1
→ -9%	2%	40µM*	-13%	2%	.
C/C(CC(C)C)=N\Oc1nc(C)cc(C)n1
→ 2%	-9%	.	14%	17%	6%
Cc1cccc(/C=N/n2c(-c3ccco3)n[nH]c2=S)c1
→ -3%	-1%	.	-12%	4%	-5%

New compounds follow:
Assay codes: A = BLM helicase inh; B = Pin1 inh; C = G9a block; D = Pol iota inh; E = GLS inh; F = Tb PGK inh
SMILES: N#Cc1ccc(Cl)cc1NC(=O)CNCc1cccs1
  A: -4%	B: 6%	C: 40µM*	D: 115%[activator]	E: -7%	F: 3%

SMILES: CCN(c1ccc(NC(=O)CN2C(=O)NC3(CCOc4ccccc43)C2=O)cc1)C(C)C (stereo unspecified)
  A: -5%	B: -5%	C: 3.2µM*	D: 15%	E: 40%[activator]	F: 7%

SMILES: CC1CCN(CC(=O)NCCc2ccc(F)cc2)CC1
  A: 0%	B: -3%	C: 13µM*	D: 81%[activator]	E: 2%	F: -2%

SMILES: CC(O)CNCCOc1ccccc1-c1ccccc1 (stereo unspecified)
  A: 6%	B: 2%	C: 3.5µM*	D: 169%[activator]	E: 35%	F: 4%

SMILES: CC(=O)Nc1nc2n(n1)C(c1ccc(Cl)cc1)C=C(C)N2 (stereo unspecified)
  A: -1%	B: 3%	C: ?	D: 3%	E: 15%	F: 20%

SMILES: Nn1c(SCc2ccc(F)cc2)nnc1-c1ccccn1
  A: 0%	B: ?	C: 23%[12.7 µM]	D: 50%[activator]	E: -16%	F: i

Rewritten with two lines to a compound: part of the list above
Every second line gives: BLM helicase inh | Pin1 inh | G9a block | Pol iota inh | GLS inh | Tb PGK inh
- CC(O)CNCCOc1ccccc1-c1ccccc1 (stereo unspecified)
  6% | 2% | 3.5µM* | 169%[activator] | 35% | 4%
- Nn1c(SCc2ccc(F)cc2)nnc1-c1ccccn1
  0% | ? | 23%[12.7 µM] | 50%[activator] | -16% | i
- CC1CCN(CC(=O)NCCc2ccc(F)cc2)CC1
  0% | -3% | 13µM* | 81%[activator] | 2% | -2%
- N#Cc1ccc(Cl)cc1NC(=O)CNCc1cccs1
  -4% | 6% | 40µM* | 115%[activator] | -7% | 3%

Screening data (PubChem)
